From PubChem
LASV entry inh = blocks Lassa virus binding to or entry into cells; Lassa virus pseudotype entry inhibition, cell reporter; control for the full effect not named in the record; 300,000 compounds, 1.2% hits; Potency, µM (top dose mostly 37.9 µM), for inactives: at the highest dose activity change, negative = inhibition, hits mostly inhibitors; active means well fitted inhibition curve with a large enough effect; inconclusive means small, poorly fitted or top-dose-only effect, or effect the other way; inactive means flat fitted curve, though single readings scatter; tested in HEK293 cells; also: % is scaled to controls: 0 for no effect and ±100 for the full control effect; nearly all actives have a fitted effect of over 50% in size; luciferase read-out
NS1 function inh = inhibitors of influenza NS1 protein function; S. cerevisiae slowed by influenza A NS1, growth recovery by OD600; Potency, µM (top dose mostly 46.1 µM), without a hit: top-dose activity, positive = more growth; 270,000 compounds, 0.4% hits; AID 2326; active means well fitted rising curve with a large enough effect; inconclusive means small, poorly fitted or top-dose-only effect; inactive means no such curve, though single readings can be large or run the other way; also: nearly all actives have a fitted effect of over 50% in size
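Recovery from NS1-induced slow growth read by OD600 in budding yeast switched to galactose assay medium (pH 6.0, -URA) at 1:100 dilution. Compound 23 nl per well; the matching strain lacking NS1 serves as control.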
Marburg entry inh = Marburg virus entry inhibition; Marburg virus pseudotyped entry inhibition, cell reporter; control for the full effect not named in the record; about a third of the inactives were read at about 46 µM; Potency, µM (top dose mostly 37.8 µM), inactives show at the highest dose activity change, negative = inhibition, most hits filed as inhibitors; 300,000 compounds, 1.8% hits; AID 540276; active = well fitted inhibition curve with a large enough effect; inconclusive = small, poorly fitted or top-dose-only effect, or effect the other way; inactive = flat fitted curve, though single readings scatter; tested in HEK293 cells; about a fifth of its hits are not listed in these tables; also: % is scaled to controls: 0 for no effect and ±100 for the full control effect; luciferase read-out
StopGo reporter = FMDV 2A StopGo reporter, luciferase signal. human cells with a luciferase reporter of 2A StopGo recoding; control for the full effect not named in the record. Potency, µM (doses to about 57.9 µM), inactives show at the top dose signal change, negative = less light. 410,000 compounds, 1.2% hits; active = well fitted falling curve with a large enough effect; inconclusive = small, poorly fitted or top-dose-only effect; inactive = no such curve, though single readings can be large or run the other way; tested in HEK293T cells; also: % is scaled to controls: 0 for no effect and ±100 for the full control effect; nearly all actives have a fitted effect of over 45% in size; luciferase light after 4 h
Cruzain Triton = inhibitors of Trypanosoma cruzi cruzain with detergent. P25779. purified cruzain, Z-FR-AMC fluorescence, 0.01% Triton. Potency, µM, inactives show max response, negative = inhibition, usual class: inhibitors. 200,000 compounds, 0.43% hits;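 also: plate controls were neutral wells for no effect and buffer without enzyme for full effect; nearly all actives have a fitted effect of over 40% in size; top concentration of the series not given in the record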
Target sequence (P25779 123-467 limits assumed): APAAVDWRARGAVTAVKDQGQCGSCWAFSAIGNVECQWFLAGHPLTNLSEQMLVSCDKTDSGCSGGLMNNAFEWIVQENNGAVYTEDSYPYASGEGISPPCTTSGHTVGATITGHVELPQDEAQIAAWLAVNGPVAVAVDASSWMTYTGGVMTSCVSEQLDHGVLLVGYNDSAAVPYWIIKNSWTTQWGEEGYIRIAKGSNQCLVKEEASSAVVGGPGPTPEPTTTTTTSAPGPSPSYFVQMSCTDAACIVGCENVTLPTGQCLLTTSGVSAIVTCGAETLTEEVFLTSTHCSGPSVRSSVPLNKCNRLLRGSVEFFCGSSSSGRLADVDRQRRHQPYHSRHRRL
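Enzyme 1.5 nM, Z-FR-AMC 2 uM, NaOAc 100 mM pH 5.5, DTT 5 mM, Triton X-100 0.01%; 15 min RT compound preincubation; kinetic ex360/em450, 60 s delta.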
RE007 growth inh = less growth of the S. pombe RE007 Vpr strain. 360,000 compounds, 0.21% hits. Potency, µM (top dose mostly 92.2 µM), inactives show at the top dose activity change, negative = less growth. S. pombe RE007 Vpr strain, BacTiter-Glo ATP luminescence, 24 h; control for the full effect not named in the record; active = well fitted falling curve with a large enough effect; inconclusive = small, poorly fitted or top-dose-only effect; inactive = no such curve, though single readings can be large or run the other way;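 also: % is scaled to controls: 0 for no effect and ±100 for the full control effect; nearly all actives have a fitted effect of over 50% in size; the assay follows cell death caused by Vpr and the record does not say whether a fall means rescue or toxicity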
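Fission yeast RE007 carrying one integrated HIV-1 vpr copy, seeded at OD 0.01 in PMG+AL medium with 23 nL pinned compound. Grown 24 h at 30 degrees; viability read by BacTiter-Glo luminescence after 5 min.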
SARS PLP yeast = blocks SARS-CoV papain-like protease in a yeast assay. S. cerevisiae expressing SARS-CoV PLpro, growth rescue; control for the full effect not named in the record. Potency, µM (highest dose often 32.9 µM), for inactives: at the top dose activity, positive = growth rescue. 330,000 compounds, 0.19% hits; active means well fitted rising curve with a large enough effect; inconclusive means small, poorly fitted or top-dose-only effect; inactive means no such curve, though single readings can be large or run the other way; also: 0% is about no effect; nearly all actives have a fitted effect of over 55% in size; growth read by luminescence after 48 h
Cruzain inh noDet = inhibitors of Trypanosoma cruzi cruzain without detergent. 200,000 compounds, 2.3% hits. purified cruzain, Z-FR-AMC fluorescence, no detergent. Potency, µM, without a hit: max response, negative = inhibition, hits mostly inhibitors;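 also: plate controls were enzyme without inhibitor for no effect and buffer without enzyme for full effect; nearly all actives have a fitted effect of over 40% in size; top concentration of the series not given in the record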
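Purified cruzain at 1.5 nM, pre-incubated 15 min with compound at room temperature in 100 mM sodium acetate pH 5.5, 5 mM DTT, 0.00005% Triton X-100. Reaction started with 2 uM Z-FR-AMC; AMC fluorescence increase over 60 s gives rate.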
Active calls of the source: *; ? = inconclusive; nt = not tested or not shown; & = joins results of further samples; [ ] = dose if it differs, or a comment. Unless noted, calls follow the shape of the dose curve; as a rule, active = well fitted curve in the direction sought with a large enough effect; inconclusive = small, poorly fitted or top-dose-only effect, or another doubt; inactive = no such curve, though single readings can be large; an effect the other way counts as inactive or inconclusive. Potency is read from the fitted curve at half-maximal effect.

SMILES	LASV entry inh	NS1 function inh	Marburg entry inh	StopGo reporter	Cruzain Triton	RE007 growth inh	SARS PLP yeast	Cruzain inh noDet
Cc1ccc(OCCCC(=O)N2CCOCC2)c(C)c1	14%	4%	-5%	32%[activator]	2.7%	-9%	-1%	6%
CCc1nnc(SCc2nc(-c3cccc(Cl)c3)oc2C)c2cc3sc(C)cc3n12	1%[46.1 µM]	nt	nt	4%	-4.4%	nt	nt	2%
Cc1ccc(NCc2cccn2-c2nnc(N3CCC(C(=O)NCCC(C)C)CC3)s2)cc1	nt	nt	-11%[46.1 µM]	?	-5.6%	nt	nt	11%
Cc1cc(S(=O)(=O)N2CCN(Cc3ccccc3)CC2)c(C)s1	nt	-18%	nt	0%	-3.0%	-6%	11%	-6%
O=C(CSc1nc(C2CCCCC2)nc2ccccc12)NCc1ccc2c(c1)OCO2	-1%	4%	2%	-18%	-1.7%	-7%	3%	-8%
NS(=O)(=O)c1ccc(NC(=O)Nc2cccc(Cl)c2)cc1	?	5%	0%	5%	nt	1%	-1%	nt
CN1CCN(C(=O)CCN2C(=O)/C(=C/c3cccc(Br)c3)SC2=S)CC1	-19%[46.1 µM]	-2%	?	-14%	nt	-16%	9%	nt
O=C(NCc1ccccc1)C1CCCN1S(=O)(=O)c1cccc2cccnc12 (stereo unspecified)	-9%	2%	2%&2%	-6%	-0.8%	-1%	7%	13%
O=C(c1ccc(S(=O)(=O)N2CCCC2)cc1)N1CCCC(C(F)(F)F)C1 (stereo unspecified)	-3%	nt	-18%	-16%	nt	2%	0%	nt
COc1ccc(C=O)cc1CN1C(=O)c2ccccc2C1=O	6%[46.1 µM]	-18%	-3%[46.1 µM]	-4%	nt	-7%	16%	nt
COc1cccc(/C=C2/CCC(CN(C)C)C2=O)c1 (stereo unspecified)	13µM*	nt	11µM*	25µM*	nt	8.9µM*	nt	nt
CC(=O)Nc1cc(N=Cc2ccc(O)cc2O)c(Cl)cc1Cl	-15%	7%	?	-19%	-3.9%	-13%	6%	?
COc1ccc(CCNC(=O)c2cc3c(=O)n4cccc(C)c4nc3n(CCCN3CCOCC3)c2=N)cc1	nt	3%	nt	0%	nt	7%	4%	nt
CCOC(=O)CN1C2=NCCN2c2ccccc21	-15%	6%	3%	0%	6.7%	0%	3%	-6%
CCOC(=O)C1(CC2CCCCO2)CCN(C(=O)Nc2ccc(SC)cc2)CC1 (stereo unspecified)	?	-5%	?	-9%	nt	3%	-1%	nt
CCCCN(CCCC)C(=O)c1nsnc1-c1ccccc1O	?	-56%	?	10%	-6.4%	-8%	-4%	-1%
Cc1cc(C(=O)CSc2nc(N)cc(=O)[nH]2)c(C)n1CC1CCCO1 (stereo unspecified)	-20%[46.1 µM]	nt	-4%[46.1 µM]	?	nt	-15%	2%	nt
NS(=O)(=O)c1ccc(CNC(=O)CSc2ccccc2)cc1	-25%	7%	-3%[46.1 µM]	-20%	nt	-3%	1%	nt
CCN(CCCNC(=O)c1cc2c(-c3cccc(OC)c3)nn(C)c2s1)Cc1ccccc1	?	-4%	?	-7%	nt	-21%	-2%	nt
O=C(NC(=S)N1CCN(c2ccc([N+](=O)[O-])cc2)CC1)c1ccc(F)cc1	-1%	30%	-21%	?	-15%	6%	2%	-8%
CSCc1cc(N(C)C)nc(SCc2ccc(Cl)c(Cl)c2)n1	8%	-12%	?	nt	-3.3%	9%	-16%	-7%
CCN(CC)S(=O)(=O)c1cccc(NC(=O)c2ccc(-n3nc(C)cc3C)cc2)c1	?	-4%	16µM*	20µM*	-6.3%	2%	7%	3%
COc1ccc(-n2nnnc2S(=O)(=O)CC(=O)N2CCCCC2)cc1	nt	-155%	nt	20µM*	0.0%	-2%	-25%	-7%
CC(C)(C)c1ccc(C(=O)NC2=NC(c3cccc(F)c3)CC(=O)N2)cc1 (stereo unspecified)	22%[46.1 µM]	nt	?	5%	-3.7%	nt	nt	4%
Cc1cccc(-c2nc3c(c(SCC(=O)N4CCOCC4)n2)Cc2c(CO)cnc(C)c2O3)c1	?	18%	nt	-11%	nt	9%	-1%	nt
Cn1c(SCc2ccccc2[N+](=O)[O-])nnc1-c1cccnc1	?	nt	?	25%	nt	-15%	0%	nt
O=C(NCCCn1ccnc1)/C(=C\c1cccs1)NC(=O)c1ccco1	12%	5%	-10%	-6%	-1.5%	nt	25%	-9%
CN(C)/C=C(\C(=O)c1ccc(Cl)cc1)c1nnnn1-c1ccc(Cl)cc1	12%	nt	-4%	-4%	nt	12%	nt	nt
O=C(CSc1ncnc2c1oc1ccccc12)NC1CCCCC1	nt	2%	nt	-7%	-1.7%	-3%	2%	17%
CC(Cc1ccccc1)NCc1ccccc1O (stereo unspecified)	22%	nt	-2%[46.1 µM]	-9%	nt	7%	5%	nt
O=C(COC(=O)/C=C/c1ccccc1Cl)NC(=O)Cc1ccccc1	2%	-6%	?	-22%	-2.7%	11%	13%	-6%
CC(/C=N/n1cnnc1)=C\c1ccco1	-1%	0%	10%	7%	-8.8%	-1%	7%	-14%
O=C(CCl)Nc1ccccc1C(=O)Nc1ccc2c(c1)OCO2	?	-5%	?	12%	nt	8%	-3%	nt
c1ccc(COC2COC3C(OCc4ccccc4)COC23)cc1 (stereo unspecified)	?	nt	-19%	-19%	nt	-1%	nt	nt
O=C(CSc1ncccc1-c1nc2ccccc2[nH]1)NCc1ccco1	20%	10%	13%	15%	-13%	-7%	-5%	9%
O=C(CCC(=O)N1CCN(S(=O)(=O)c2ccc(Cl)cc2)CC1)NCc1ccccc1	0%	12%	-5%	-29%	-1.0%	-26%	-7%	13%
CC(C)OCCCN1CC(=O)N2[C@@H](Cc3c([nH]c4ccccc34)C2(C)C)C1=O	-6%	0%	-15%	-18%	nt	-1%	3%	nt
CC(=O)c1ccc(OC(=O)c2c(-c3ccccc3Cl)noc2C)cc1	-22%[46.1 µM]	nt	nt	-12%	-4.5%	nt	nt	1%
COc1ccc(S(=O)(=O)NC(CC(=O)N2CCC3(CC2)OCCO3)C(C)C)cc1 (stereo unspecified)	4%	-5%	6%	nt	2.6%	1%	0%	-10%
COc1ccccc1OCC#CCSc1ncccn1	nt	-4%	nt	54%[activator]	nt	-9%	-1%	nt

4 entries drawn at random from the list so far:
SMILES	LASV entry inh	NS1 function inh	Marburg entry inh	StopGo reporter	Cruzain Triton	RE007 growth inh	SARS PLP yeast	Cruzain inh noDet
CC(C)(C)c1ccc(C(=O)NC2=NC(c3cccc(F)c3)CC(=O)N2)cc1 (stereo unspecified)	22%[46.1 µM]	nt	?	5%	-3.7%	nt	nt	4%
O=C(NCCCn1ccnc1)/C(=C\c1cccs1)NC(=O)c1ccco1	12%	5%	-10%	-6%	-1.5%	nt	25%	-9%
CC(=O)c1ccc(OC(=O)c2c(-c3ccccc3Cl)noc2C)cc1	-22%[46.1 µM]	nt	nt	-12%	-4.5%	nt	nt	1%
O=C(CSc1ncccc1-c1nc2ccccc2[nH]1)NCc1ccco1	20%	10%	13%	15%	-13%	-7%	-5%	9%

(list continues)
SMILES	LASV entry inh	NS1 function inh	Marburg entry inh	StopGo reporter	Cruzain Triton	RE007 growth inh	SARS PLP yeast	Cruzain inh noDet
Cc1cc(C)c(NC(=O)CNC(=O)Cc2sc(C)nc2-c2ccc(F)cc2)c(C)c1	-4%	nt	-6%	-8%	nt	11%	3%	nt
C=C1CC[C@@]2(O)[C@H]3Cc4ccc(O)c5c4[C@@]2(CCN3CC2CC2)[C@H]1O5	-6%	1%	7%	-22%	0.1%	-5%	0%	-17%
O=C(Nc1ncc2c(n1)-c1ccccc1CC2)c1cccc(Cl)c1	-28%	-47%	-6%	2%	-4.8%	-11%	-22%	-5%
CCc1cccc(C)c1NC(=O)CSc1nc(C)cc(C)c1C(=O)Nc1ccccc1	5%[46.1 µM]	nt	-14%[46.1 µM]	-28%	-2.2%	nt	nt	7%
C=CCSc1nnc(-c2cnn(-c3ccccc3)c2-n2cccc2)n1C	-4%	-3%	-2%	2%	5.9%	-9%	6%	0%
CC1CCCC(C)N1C(=O)COC(=O)Cn1cnc2c1c(=O)n(C)c(=O)n2C (stereo unspecified)	6%	nt	?	-8%	nt	-15%	-1%	nt
COc1ccccc1C(=O)Nc1c2c(nn1-c1cccc(C)c1C)CS(=O)C2 (stereo unspecified)	21%	-6%	0%	-22%	3.8%	1%	5%	-7%
CCN(CC)CC(O)Cn1c(-c2cccc(Cl)c2)nc2cc(C)c(C)cc21 (stereo unspecified)	nt	-6%	nt	21%	nt	5%	0%	nt
COc1cc(C(=O)NCCCc2nc3ccccc3n2Cc2cc(C)ccc2C)cc(OC)c1OC	6%	-37%	?	-10%	0.8%	12%	-6%	?
CCN1CCCC1CNC(=O)c1ccc(Sc2ccc(F)cc2)c([N+](=O)[O-])c1 (stereo unspecified)	nt	nt	6.3µM*	-8%	nt	-11%	-1%	nt
Cc1cccc(OCC(=O)NCC(c2ccco2)N2CCCC2)c1 (stereo unspecified)	14%	nt	-8%	3%	nt	-12%	0%	nt
CCc1nccn1C(=O)c1cnn2c(C(F)F)cc(-c3ccc(C)cc3)nc12	?	-5%	?	?	-20%	3%	13%	12%
CC1CC(OCC(O)CN2CCN(Cc3ccccc3)CC2)CC(C)(C)C1 (stereo unspecified)	?	7%	?	?	19%	-5%	-2%	-3%
CCCNC(=O)c1cccc(C(F)(F)F)c1	-5%	3%	-11%	3%	4.8%	6%	7%	10%
CCOC(=O)Cc1cnc(NC(=O)CSc2nc(C)c(CC)c(=O)[nH]2)s1	?	nt	?	0%	nt	-3%	-1%	nt
O=c1nc2c(-c3ccccc3F)n[nH]n2c2ccccc12	?	-50%	4%	42%[activator]	12%	-11%	2%	-11%

Complete entries, looked up by structure. Screens in order: LASV entry inh	NS1 function inh	Marburg entry inh	StopGo reporter	Cruzain Triton	RE007 growth inh	SARS PLP yeast	Cruzain inh noDet
COc1ccccc1OCC#CCSc1ncccn1 across the screens: nt	-4%	nt	54%[activator]	nt	-9%	-1%	nt
CCc1nccn1C(=O)c1cnn2c(C(F)F)cc(-c3ccc(C)cc3)nc12 across the screens: ?	-5%	?	?	-20%	3%	13%	12%
